rRNA inh HTS = inhibitors of bacterial rRNA selective over humanized ribosomes. GFP signal change (wild-type ribosome), % (concentration not given with the values). actives 1.6% (n = 350,000). E. coli WT GFP vs humanized-ribosome RFP mutants, fluorescence, 24 h; active compounds read low; DMSO median 0, no signal -100. AID 720706;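 active means significant combined selectivity score with lowered wild-type GFP, culture density cut under 30%, mutant RFP and density less affected; inactive means any of these conditions unmet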; further: one replicate is shown; some compounds called inactive have numbers as strong as hits
AF4-AF9 inh = inhibitors of human MLL-AF4/AF9 interaction | AlphaScreen, biotin-AF4 peptide binding to FLAG-AF9 | AID 651704 | P42568 | actives 0.47% (n = 350,000) | inhibition, % at 10 µM;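 active means every replicate reaching a set inhibition limit, whatever the replicate mean, cut at about 25% in these data; inconclusive means mean inhibition reaches that limit but some replicates miss it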;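 further: 0% = plate neutral control median and 100% = total signal loss; the record names both 10 and 1 µM as test concentration; the first replicate is given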
Target sequence (P42568 whole entry, looked up): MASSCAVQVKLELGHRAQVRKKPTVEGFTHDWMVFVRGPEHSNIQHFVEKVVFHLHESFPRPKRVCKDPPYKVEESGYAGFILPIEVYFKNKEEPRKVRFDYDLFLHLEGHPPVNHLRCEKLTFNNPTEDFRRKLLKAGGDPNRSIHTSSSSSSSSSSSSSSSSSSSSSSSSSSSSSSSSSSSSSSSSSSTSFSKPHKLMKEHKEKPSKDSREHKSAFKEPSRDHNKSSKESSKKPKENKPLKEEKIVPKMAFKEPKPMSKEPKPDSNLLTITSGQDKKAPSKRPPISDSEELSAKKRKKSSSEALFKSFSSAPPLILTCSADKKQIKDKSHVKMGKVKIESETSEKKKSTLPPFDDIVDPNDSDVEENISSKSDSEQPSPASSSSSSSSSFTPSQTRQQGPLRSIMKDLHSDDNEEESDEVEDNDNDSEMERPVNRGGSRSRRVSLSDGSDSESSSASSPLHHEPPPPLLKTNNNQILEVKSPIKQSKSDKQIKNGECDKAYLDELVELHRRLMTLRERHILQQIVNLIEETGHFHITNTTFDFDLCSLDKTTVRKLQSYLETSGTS
Calb FLC = C. albicans growth modulation with fluconazole; C. albicans CaCi-2 (fluconazole-resistant clinical isolate) + fluconazole, Alamar Blue growth, 48 h; growth inhibition, % (test concentration not listed); actives 0.57% (n = 300,000);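 active means most replicates above 75%; inconclusive means exactly half above 75%; inactive means most below 75%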;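 further: all wells also contain fluconazole at 8 µg/ml as a sub-toxic cotreatment; 0% = median of DMSO wells and 100% = median of geldanamycin control wells; wells of about 8 µL received 7.5 nL stock; the first replicate is given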
FGF22 binding = shifts melting point of recombinant human FGF22; recombinant FGF22 thermal shift, SYPRO orange fluorescence; percent of sucrose octasulfate shift, DMSO zero; actives 1.5% (n = 340,000); Q9HCT0; calls only at 9.99 µM;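 active means melting point raised past a set limit in the mean and every replicate; inconclusive means no clear call; three in four hits are not shown here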
Target sequence (Q9HCT0 whole entry, looked up): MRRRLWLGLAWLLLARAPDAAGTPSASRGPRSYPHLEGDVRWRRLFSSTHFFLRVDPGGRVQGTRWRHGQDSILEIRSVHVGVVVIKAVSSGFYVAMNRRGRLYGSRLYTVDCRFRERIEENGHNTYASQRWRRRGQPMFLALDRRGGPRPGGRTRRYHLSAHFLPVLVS
RanGTP-Impb inh = inhibitors of RanGTP-importin-beta interaction, primary screen, biochemical, FRET, CFP-Ran, YFP-importin-beta, homogeneous; AID 2216; actives 1.1% (n = 300,000); inhibition, % (test concentration not listed); cell-free CFP-Ran/YFP-importin-beta FRET ratio;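 active means most replicates above 15%; inconclusive means exactly half above 15%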;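 further: 0% = DMSO wells and 100% = Ran loaded with GDP instead of GTP; wells of about 40 µL received 100 nL stock; the first replicate is given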
ALR H2O2 inh = inhibitors of human sulfhydryl oxidase ALR; purified ALR, DTT oxidation, H2O2 HRP-luminol luminescence; inhibition, % (concentration not given with the values); actives 3.8% (n = 290,000); AID 485317;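 active means mean and each replicate at 75% or more; inconclusive means only one of the two met; inactive means neither met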;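 further: stock transfer was 7.5 nL into about 7.5 µL; 0% = neutral wells and 100% = wells with inactivated enzyme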
Target sequence (P55789 whole entry, looked up): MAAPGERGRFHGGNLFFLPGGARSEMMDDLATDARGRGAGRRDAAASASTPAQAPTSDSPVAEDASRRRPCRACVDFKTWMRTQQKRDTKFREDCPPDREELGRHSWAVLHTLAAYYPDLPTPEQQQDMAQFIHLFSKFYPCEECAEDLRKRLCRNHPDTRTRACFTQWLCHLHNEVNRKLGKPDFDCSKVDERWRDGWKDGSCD
T cruzi repl = blocks replication of Trypanosoma cruzi; actives 1.4% (n = 300,000); T. cruzi beta-gal in NIH3T3, luminescence, 90 h; AID 1885; inhibition, % (concentration not given with the values);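 active means mean inhibition across valid replicates above about 55%, limit read from the data; inconclusive means mean below that limit but half or more replicates reach it; inactive means mean below it, under half of replicates reach it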;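 further: signal also drops with host cell toxicity which is not excluded here; 0% = plate median of DMSO wells and 100% = zero luminescence signal; higher percent means less beta-gal luminescence so fewer parasites; stock transfer was 50 nL into about 50 µL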
Beta cell apopt = blocks beta cell apoptosis; INS-1E cytokine-induced death, ATP luminescence, 48 h; percent of positive-control rescue, neutral wells zero; protection from apoptosis, % (concentration not given with the values); actives 0.8% (n = 300,000);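 active means all replicates at 75% or more, or half of them and the mean; inconclusive means half reach 75% but not the mean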;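 further: 0% = cytokine-treated negative control wells and 100% = positive control rescue; higher means more ATP so stronger rescue from cytokine killing; wells of about 40 µL received 100 nL stock; the first replicate is given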
rRNA inh HTS OD600 = further read-out of rRNA inh HTS, marked with its call; OD600 change, %; measured here: OD600 growth;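 optical density of the mix in the first replicate; 0 = DMSO median and -100 = no signal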
rRNA inh HTS RFP = also measured in rRNA inh HTS; calls as there; RFP signal change, %; measured here: RFP humanized mutant strains;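 first replicate; 0 = DMSO median and -100 = no signal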
Numbers without * were called inactive; i = inactive; u = inconclusive; x = no result given. Only part of the results is shown, so the mix of outcomes need not match the whole.

structure	rRNA inh HTS	rRNA inh HTS OD600	rRNA inh HTS RFP	AF4-AF9 inh	Calb FLC	FGF22 binding	RanGTP-Impb inh	ALR H2O2 inh	T cruzi repl	Beta cell apopt
CC(=O)c1ccc(C#CC(C)(C)O)s1	x	x	x	x	-1	x	4.8	-8	-8	-6
C/C(=N\O)C(C)(C)Nc1ccc(F)cc1	13	1	1.4	-4.3	-1	i	1.7	6	-22	-9
COc1ccc2cc(C(c3nnnn3C(C)(C)C)N3CCSCC3)c(=O)[nH]c2c1 (stereo not drawn)	x	x	x	x	-12	x	4.9	-3	-3	-5
CN(C)/C(Cn1cncn1)=C1/N=C(c2ccccc2)OC1=O	14	8	0.3	2.2	-9	x	-2.0	0	-5	-12
CC1CCCN(Cc2csc(N)n2)C1 (stereo not drawn)	16	7	0.2	-0.8	-1	i	1.2	-30	-6	-9
COCCN=C1Sc2nc3ccc(C)cc3cc2CN1Cc1cccs1	-9	-9	0.0	-14	-3	i	4.9	7	21	-10
COc1ccc(S(=O)(=O)N(C)CC(=O)Nc2ccccc2SC)cc1Cl	x	x	x	x	38	x	-1.3	1	-4	-4
O=C(CCc1ccccc1)NCCc1cccs1	1	8	-0.2	1.1	-15	i	-1.2	15	15	-2
Cc1ccc(-c2cc(C(=O)NCc3ccc4c(c3)OCO4)no2)cc1	x	x	x	x	-40	x	-2.3	-2	7	-3
Cc1ccc(NC(=O)CCN2CCOCC2)cc1C	1	15	2.0	-4.4	-6	i	4.3	-10	-7	0
CCOP(=O)(OCC)C(Nc1ccc(C(=O)O)cc1)c1ccccc1 (stereo not drawn)	4	2	-2.1	1.5	5	i	0.4	-1	3	-4
O=C(COc1ccc(Nc2ccccc2)cc1)OCC(=O)N1CCCCC1	11	4	1.8	-3.6	2	i	1.0	x	5	6
CC(C)c1ccc(/C=C2\Oc3c(ccc(O)c3CN3CCN(C)CC3)C2=O)cc1	-1	2	-1.5	0.4	x	i	x	10	-16	1
O=C(NNC(=O)c1ccccc1-n1cccc1)c1ccc(Cl)cc1Cl	x	x	x	x	-24	x	7.9	-3	-16	-5
C[C@@H]1[C@H](O)C[C@@]23COC(=O)C2=CCCC3[C@@]1(C)CCC1COC(=O)C1 (stereo partly drawn)	-6	-2	0.3	-3.5	x	i	x	x	x	-2
COc1ccc(NC(=O)C2CCCN(CCCc3ccccc3)C2)cc1OCC(C)C (stereo not drawn)	-48	-74	-8.5	20	-45	i	3.6	-13	34	15
CNC(=O)CN(c1ccc(OC)cc1)S(=O)(=O)c1ccc(F)cc1	x	x	x	x	-13	x	u	-2	3	-12
C/C(=N/Nc1ccnc2cc(Cl)ccc12)c1ccc(O)cc1	8	34	21	5.5	1	i	4.6	93*	32	0
C=CCn1c(C)cc(C(=O)CSc2nc3ccccc3o2)c1C	x	x	x	x	3	x	-4.0	57	17	-5
O=C(NCCN1CCOCC1)c1ccc(Cl)c(S(=O)(=O)N2CCOCC2)c1	7	10	-1.2	-1.3	-7	i	1.3	-4	13	-3
CCc1ccccc1NCC(=O)Nc1ccc(Cl)c(C(F)(F)F)c1	-53	-78	-23	2.3	-26	i	0.3	-3	-1	x
COc1ccc(OCC(=O)N(Cc2ccc(C)o2)C2CCS(=O)(=O)C2)cc1 (stereo not drawn)	5	7	-0.5	-2.8	-5	i	8.8	-2	10	-7
Nc1nc(SCC(=O)Nc2cc(-c3ccccc3)nn2-c2ccccc2)n[nH]1	-10	0	3.5	6.4	1	i	2.5	2	24	-2
O=c1cc(N2CCOCC2)c2ccccc2o1	x	x	x	x	u	x	4.3	-1	-13	2
CC1CCCCC1NC(=S)Nc1ccc(Cl)cc1Cl (stereo not drawn)	-46	-74	-11	-5.2	-11	i	2.6	4	-4	1

Single entries from the list:
Reading of COc1ccc(S(=O)(=O)N(C)CC(=O)Nc2ccccc2SC)cc1Cl in T cruzi repl: -4
Reading of O=C(NNC(=O)c1ccccc1-n1cccc1)c1ccc(Cl)cc1Cl in T cruzi repl: -16

Additional structures:
structure	rRNA inh HTS	rRNA inh HTS OD600	rRNA inh HTS RFP	AF4-AF9 inh	Calb FLC	FGF22 binding	RanGTP-Impb inh	ALR H2O2 inh	T cruzi repl	Beta cell apopt
Cc1[nH]c2ccccc2c1C(c1ccncc1)N1CCC(C)CC1 (stereo not drawn)	7	6	1.2	8.2	3	x	-7.6	97*	-13	-11
CCOc1ccc2ccccc2c1CNc1nnnn1CC	-8	-3	-1.7	2.2	3	i	-2.9	-6	-4	-11
C=CCOn1c(=O)c(-c2ccc(OC)c(OC)c2)[n+]([O-])c2ccccc21	x	x	x	x	0	x	-4.8	-25	-2	-7
Cc1cccc(NC(=O)C2CCN(S(=O)(=O)c3c(C)noc3/C=C/c3ccco3)CC2)n1	x	x	x	x	10	x	3.5	9	19	-13
CC(=O)CSc1ncnc2sc3c(c12)CCCC3	-28	-42	-8.4	-1.7	0	i	-0.3	6	0	x
CC(=O)c1ccc(NC(=O)CC2Nc3cccc4cccc(c34)NC2=O)cc1 (stereo not drawn)	3	19	5.1	9.7	-3	i	4.0	x	7	6
CN1CCN(S(=O)(=O)c2cc(C(F)(F)F)ccc2Cl)CC1	-8	-6	-2.4	-1.7	-6	i	0.2	-15	-4	-4
Cc1ccc(C(=O)NC(=O)OCCn2c(C)cnc2[N+](=O)[O-])cc1	5	5	3.9	-0.5	88*	i	2.8	x	-9	-10
Cc1ccc(S(=O)(=O)NC2CCCCC2)cc1	-3	-7	-0.2	x	x	i	x	2	x	-12
COc1ccc(Cn2c(=O)oc3ccc(C)cc32)cc1OC	x	x	x	x	8	x	4.6	-3	-33	37
O=C(Nc1cccc(Cl)c1)Nc1nc(-c2ccc(Cl)cc2)cs1	x	x	x	x	-5	x	-1.9	-9	u	43
COC(=O)Cn1c(=O)c2c(n(Cc3ccccc3)c1=O)N/C(=C/c1ccc(Br)cc1)C2=O	6	9	-1.8	-2.7	6	i	-5.2	16	-4	-9
Cc1ccc(C)c(NC2=CC(=O)CC(C)(C)C2)c1C#N	x	x	x	x	-3	x	-2.1	10	1	-11
CCOC(=O)CN1C(=O)C(Sc2n[nH]c(-c3ccccc3)n2)CCc2ccccc21 (stereo not drawn)	x	x	x	x	19	x	2.5	0	13	1
COC(=O)[C@@]12CCCCN1[C@H](c1ccc(SC3CCCCC3)cc1)[C@H]1C(=O)N(C)C(=O)[C@H]12	7	2	0.2	0.9	6	i	1.2	-1	-19	59
Cc1ccc(NC(=O)Cn2c(=O)n(Cc3ccco3)c(=N)c3c4c(sc32)COC(C)(C)C4)cc1	x	x	x	x	-4	x	2.5	-3	30	-3
O=[N+]([O-])c1ccc(CNc2cccc(F)c2)s1	x	x	x	9.5	-1	i	-0.9	-1	14	-14
O=C(NCc1ccco1)c1nc2nc(-c3cccs3)cc(C(F)(F)F)n2n1	x	x	x	x	5	x	3.3	49	9	-4
Cc1c(NC(=O)Nc2ccc([N+](=O)[O-])cc2)c(=O)n(-c2ccccc2)n1C	4	10	10	-1.7	-3	i	-2.8	-2	-6	2
O=C(CN1C(=O)S/C(=C/c2cccs2)C1=O)N1CCCC1	1	2	-1.1	-5.8	x	i	x	-12	x	-1
CCCN(CC(=O)Nc1ccc(OC)c(OC)c1)CC(=O)Nc1ccc(F)c(F)c1F	1	15	-1.3	2.7	33	i	-3.6	-2	-8	1
Cc1ccc(C)c(S(=O)(=O)N2CCCC2CNC(=O)C(=O)NCc2ccccn2)c1 (stereo not drawn)	-2	-1	-1.8	-1.7	11	i	4.9	-12	4	x
COc1cccc(Oc2nc(N)ncc2[N+](=O)[O-])c1	4	12	0.9	1.2	7	i	4.9	x	-11	2
Cc1ccc(N=C2NC(=O)/C(=C/c3cccn3C)S2)cc1	-3	0	0.5	x	6	i	6.9	x	-9	13
CN1C(=O)CC(N2CCN(c3ccc(Cl)c(Cl)c3)CC2)C1=O (stereo not drawn)	x	x	x	x	6	x	6.8	-4	-4	-3
COc1ccc(NC(=O)Nc2ccc(Cc3ccncc3)cc2)cc1OC	x	x	x	x	1	x	-2.7	-36	-22	-1
CC(=O)Nc1ccc(NC(=O)COc2ncnc3ccccc23)cc1	8	14	-0.5	0.3	-12	x	8.0	-6	-17	1
Nc1c(Cl)cc(NC(=O)c2ccccc2C(=O)O)cc1Br	x	x	x	x	22	x	2.6	-146	-17	-6
Cc1c(CC(=O)NCCCC(=O)O)c(=O)oc2c(C)c3oc4c(c3cc12)CCCC4	-28	-43	-6.9	1.7	7	i	-1.1	42	-2	-3
Cc1ccccc1C(=O)Nc1cc(S(=O)(=O)N2CCCCC2)ccc1N1CCN(C)CC1	x	x	x	x	-15	x	-0.4	-3	39	2
CCNC(=O)CN1C(=O)NC2(CCOc3ccccc32)C1=O (stereo not drawn)	-2	-9	-2.3	0.6	2	i	1.1	x	2	3
O=C(Nc1nc2ccccc2[nH]1)Nc1ccccc1F	6	9	-1.0	-2.5	-2	i	3.4	-9	2	-4
CCOc1ccc(C(=O)NNC(=O)C2CC(=O)N(c3ccc(C)cc3)C2)cc1 (stereo not drawn)	1	-5	-1.5	1.0	-4	i	-1.6	x	-9	-2
Cc1cccc(C(=O)NCCCNC(=O)c2ccccn2)c1	15	7	3.7	-4.5	8	i	23	0	1	-3
O=C(Nc1cccnc1)c1ccccc1-c1nc(-c2ccccc2F)no1	-15	-13	12	-0.3	-45	i	-3.1	-1	-5	-9
COc1ccc(CNCCCC(=O)Nc2c(Cl)ccc(C)c2Cl)cc1OC	12	-2	-2.0	0.6	-19	i	-2.9	2	27	-6
Cn1c(C2CCCN2C(=O)OC(C)(C)C)n[nH]c1=S (stereo not drawn)	x	x	x	x	5	x	-1.4	9	-9	1
COc1ccc(N(CCC(=O)NCCc2ccccc2)S(=O)(=O)c2ccc(C)cc2C)cc1	-9	-32	9.8	4.0	x	i	x	x	x	3
CCN(C(=O)COC(=O)c1cc(S(=O)(=O)N2CCOCC2)ccc1F)C1CCS(=O)(=O)C1 (stereo not drawn)	6	8	-2.3	-1.3	8	i	2.0	-5	-2	3
CCOc1ccc(NC(=O)c2cccc3c2C(=O)N(CCOC)C3)cc1	x	x	x	x	-9	x	1.5	-3	8	-12
CCOCCCNCc1ccc(Cl)cc1	x	x	x	x	-7	x	1.1	x	7	-4
O=C(/C=C/c1ccco1)N(Cc1cccc(Cl)c1)C1CCS(=O)(=O)C1 (stereo not drawn)	2	0	8.3	x	5	i	0.7	6	11	-2
O=C(O)c1cnn2c(-c3ccc(F)cc3)ccnc12	4	9	1.5	-1.4	-14	i	5.9	-12	6	2
